Lassa entry inh = Lassa virus entry inhibition; Lassa virus pseudotype entry inhibition, cell reporter; control for the full effect not named in the record; AID 540256; hit rate 1.2% among 300,000; Potency, µM (highest dose often 37.9 µM), for the others: at the top dose activity change, negative = inhibition, most hits filed as inhibitors; active means well fitted inhibition curve with a large enough effect; inconclusive means small, poorly fitted or top-dose-only effect, or effect the other way; inactive means flat fitted curve, though single readings scatter; tested in HEK293 cells; note: % is set by controls: 0 for no effect and ±100 for the full control effect; nearly all actives have a fitted effect of over 50% in size; luciferase read-out
NS1 function inh = blocks influenza NS1 protein function; S. cerevisiae slowed by influenza A NS1, growth recovery by OD600; Potency, µM (titrated, usually from 46.1 µM), for inactives: at the highest dose activity, positive = more growth; hit rate 0.4% among 270,000; AID 2326; note: actives are rising curves; nearly all actives have a fitted effect of over 50% in size
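Growth recovery, yeast-based: influenza A NS1 expressed in S. cerevisiae causes slow growth, and suppressors are detected by OD600. The parent strain without NS1 is used as positive control.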
StopGo reporter = FMDV 2A StopGo reporter, luciferase signal | human cells with a luciferase reporter of 2A StopGo recoding; control for the full effect not named in the record | Potency, µM (top dose mostly 57.9 µM), without a hit: at the highest dose signal change, negative = less light | AID 1159524 | hit rate 1.2% among 410,000; active = well fitted falling curve with a large enough effect; inconclusive = small, poorly fitted or top-dose-only effect; inactive = no such curve, though single readings can be large or run the other way; tested in HEK293T cells; note: % is set by controls: 0 for no effect and ±100 for the full control effect; nearly all actives have a fitted effect of over 45% in size; luciferase light after 4 h
Cruzain inh noDet = inhibitors of Trypanosoma cruzi cruzain without detergent | AID 1476 | hit rate 2.3% among 200,000 | P25779 | Potency, µM, inactives show max response, negative = inhibition, most hits filed as inhibitors | purified cruzain, Z-FR-AMC fluorescence, no detergent; active = well fitted curve in the direction sought with a large enough effect; inconclusive = small, poorly fitted or top-dose-only effect, or another doubt; inactive = no such curve, though single readings can be large; an effect the other way counts as inactive or inconclusive;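 note: plate controls were enzyme without inhibitor for no effect and buffer without enzyme for full effect; nearly all actives have a fitted effect of over 40% in size; top concentration of the series not given in the record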
Target sequence (P25779 123-467 limits assumed): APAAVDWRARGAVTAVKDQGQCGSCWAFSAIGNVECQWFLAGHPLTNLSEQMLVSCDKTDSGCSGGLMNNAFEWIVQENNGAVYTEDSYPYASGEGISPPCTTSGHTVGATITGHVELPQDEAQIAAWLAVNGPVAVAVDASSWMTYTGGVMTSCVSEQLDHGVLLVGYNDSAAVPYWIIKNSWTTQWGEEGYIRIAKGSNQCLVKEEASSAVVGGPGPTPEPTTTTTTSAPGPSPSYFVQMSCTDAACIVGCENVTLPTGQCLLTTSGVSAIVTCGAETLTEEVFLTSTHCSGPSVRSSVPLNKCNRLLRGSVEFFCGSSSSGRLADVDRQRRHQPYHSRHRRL
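Purified cruzain at 1.5 nM, pre-incubated 15 min with compound at room temperature in 100 mM sodium acetate pH 5.5, 5 mM DTT, 0.00005% Triton X-100. Reaction started with 2 uM Z-FR-AMC; AMC fluorescence increase over 60 s gives rate.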
SARS PLP yeast = blocks SARS-CoV papain-like protease in a yeast assay; hit rate 0.19% among 330,000; S. cerevisiae expressing SARS-CoV PLpro, growth rescue; control for the full effect not named in the record; Potency, µM (doses to about 32.9 µM), for inactives: at the top dose activity, positive = growth rescue; note: 0% is about no effect; nearly all actives have a fitted effect of over 55% in size; growth read by luminescence after 48 h
MARV entry inh = inhibitors of Marburg virus binding or cell entry. Marburg virus pseudotyped entry inhibition, cell reporter; control for the full effect not named in the record; about a third of the inactives were read at about 46 µM. Potency, µM (top dose mostly 37.8 µM), for inactives: at the top dose activity change, negative = inhibition, hits mostly inhibitors. hit rate 1.8% among 300,000; active = well fitted inhibition curve with a large enough effect; inconclusive = small, poorly fitted or top-dose-only effect, or effect the other way; inactive = flat fitted curve, though single readings scatter; tested in HEK293 cells; about a fifth of its hits are not listed in these tables; note: % is set by controls: 0 for no effect and ±100 for the full control effect; luciferase read-out
RE007 growth inh = less growth of the S. pombe RE007 Vpr strain. S. pombe RE007 Vpr strain, BacTiter-Glo ATP luminescence, 24 h; control for the full effect not named in the record. Potency, µM (top dose mostly 92.2 µM), inactives show top-dose activity change, negative = less growth. hit rate 0.21% among 360,000. AID 651644; active = well fitted falling curve with a large enough effect; inconclusive = small, poorly fitted or top-dose-only effect; inactive = no such curve, though single readings can be large or run the other way;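 note: % is set by controls: 0 for no effect and ±100 for the full control effect; nearly all actives have a fitted effect of over 50% in size; the assay follows cell death caused by Vpr and the record does not say whether a fall means rescue or toxicity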
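Fission yeast strain RE007, carrying one chromosomally integrated HIV-1 vpr copy, was seeded at OD 0.01 in PMG+AL medium with 23 nL pinned compound. After 24 h at 30 °C and 99% humidity, viability was read by BacTiter-Glo luminescence.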
Cruzain Triton = blocks cruzain activity in presence of Triton detergent | P25779 | purified cruzain, Z-FR-AMC fluorescence, 0.01% Triton | Potency, µM, without a hit: max response, negative = inhibition, most hits filed as inhibitors | hit rate 0.43% among 200,000; active = well fitted curve in the direction sought with a large enough effect; inconclusive = small, poorly fitted or top-dose-only effect, or another doubt; inactive = no such curve, though single readings can be large; an effect the other way counts as inactive or inconclusive;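 note: plate controls were neutral wells for no effect and buffer without enzyme for full effect; nearly all actives have a fitted effect of over 40% in size; top concentration of the series not given in the record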
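Detergent-containing arm of a paired screen for aggregation-based inhibition: 0.01% Triton X-100 present. Cruzain at 1.5 nM cleaved 2 uM Z-FR-AMC at pH 5.5 with 5 mM DTT; AMC fluorescence gain over 60 s measured activity.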
Active calls of the source: *; ? = inconclusive; / = no result given; & = joins results of further samples; [ ] = remark or other dose. Unless noted, calls come from the whole dose curve; as a rule, active means well fitted rising curve with a large enough effect; inconclusive means small, poorly fitted or top-dose-only effect; inactive means no such curve, though single readings can be large or run the other way. Potency is the fitted concentration of half-maximal effect. Rows were taken by chance, and some 4.5% of all compounds hit somewhere here.

Order of results: Lassa entry inh, NS1 function inh, StopGo reporter, Cruzain inh noDet, SARS PLP yeast, MARV entry inh, RE007 growth inh, Cruzain Triton
N/C(=N\OC(=O)CC1CCCCC1)c1ccncc1
→ 7%, 1%, 33%[activator], /, 0%, 18%, 1%, /
COc1ccc2c(c1)CC(NC(=O)Nc1ccc(NC(C)=O)cc1)CO2 (configuration not stated)
→ 15%[46.1 µM], /, -16%, 1%, /, /, /, 1.8%
Cc1cccc(Nc2c3c(nc4ncnn24)CCC3)c1
→ /, 12%, ?, /, 2%, /, -1%, /
Cn1cccc1Cc1nnc(SCC(=O)Nc2ccccc2)n1-c1ccc(F)cc1
→ -1%, -6%, -1%, 5%, 7%, -9%, -29%, -2.4%
Cc1cc(/C=C2\SC(=O)N(C)C2=O)c(C)n1-c1cccc(C(=O)O)c1
→ /, 3%, 20%, /, 1%, /, -1%, /
Cc1ccccc1CNC(=O)c1ccccc1C(=O)O
→ 0%, 3%[9.22 µM], -5%, 3%, ?, 0%, 10%, 0.0%
CCC(O)(CC)C(=O)NN(C(=O)Nc1csc2c1CCCC2)c1ccccc1
→ -7%, 4%, -21%, ?, 3%, ?, 15%, 0.1%
COc1ccc(C(=O)NCc2ccc3c(c2)OCO3)cc1S(=O)(=O)N(C)Cc1ccccc1
→ -10%, 23%, -4%, -6%, 6%, ?, /, -4.5%
COc1ccc(CNC(=O)CN(C(=O)CCC(=O)Nc2nccs2)c2ccc3c(c2)OCO3)cc1
→ /, 7%, 46%[activator], /, -3%, -3%[46.1 µM], -1%, /
COCCCn1c(SCC(=O)Nc2ccccc2)nnc1-c1ccncc1
→ 5%, 6%, 5%, 4%, 1%, -1%[46.1 µM], 11%, 0.1%
Cc1ccc(C(=O)NC(=S)Nc2cc(-c3nc4ccccc4s3)ccc2C)cc1
→ 23%, 15%, 43%[activator], ?, 2%, ?, 2%, 5.9%
CC(C)=CCCC(C)CN1CCC(n2nccc2NC(=O)c2cccnc2)CC1 (configuration not stated)
→ -10%, 2%, ?, /, /, -17%, -2%, /
Cc1cccc(C(C)C)c1NC(=O)C(NS(=O)(=O)c1cccc2nsnc12)c1ccccc1 (configuration not stated)
→ -3%[46.1 µM], /, -3%, -30%, /, ?, /, -4.6%
CCCS(=O)(=O)c1nc(S(=O)(=O)c2ccc(C)cc2)c(NC(C)c2ccccc2)s1 (configuration not stated)
→ ?, /, 14%, -4%, /, -2%[46.1 µM], /, -3.0%
CCc1ccc2nc(N3C(=O)c4oc5ccccc5c(=O)c4C3c3ccc(OC)c(OC)c3)sc2c1 (configuration not stated)
→ 12%, 6%, /, -2%, 26%, 2%, /, -5.5%
CCN(CCNC(=O)CCCn1nc(C)n2c(cc3sccc32)c1=O)c1ccccc1
→ /, -34%, -6%, 30%, -1%, /, 6%, -2.1%
Cc1nn(C)c(C)c1/C=N/O
→ 14%, 6%, -18%, -6%, -4%, -9%, -11%, 0.9%
COc1cc(OC)c(C2Nc3c(C)cccc3-c3cc(C)nn32)cc1OC (configuration not stated)
→ -8%[46.1 µM], /, -8%, 7%, /, ?, /, -0.6%
COc1ccc(/C=C2\CCc3ccccc3C2=O)cc1OC
→ 1%, -73%, 15%, 4%, -23%, -11%, -21%, -6.6%
COc1ccc2nc3c(cc2c1)c(NC(=O)c1cccs1)nn3CC(C)C
→ -19%, /, 2%, 14%, -9%, ?, -14%, -3.8%
COc1cc(C)ccc1OCCCCOc1ccccc1C(C)=O
→ -15%, 4%, ?, -12%, -5%, ?, 10%, -6.8%
NC(=O)COc1ccc(/C=N\NC(=O)c2ccc(-c3ccccc3)cc2)cc1
→ 13%, 11%, -6%, /, -5%, -11%, 0%, /
CN(c1ccc(C(=O)NC2CC2)cc1)S(=O)(=O)c1ccccc1
→ 7%, -3%, 33%[activator], -3%, 2%, 0%, 6%, 3.0%
COc1ccc(NC(=O)c2cccc(S(=O)(=O)NCc3ccco3)c2)c(OC)c1
→ -30%, /, 29%, /, /, 24%[46.1 µM], -19%, /
Cn1c(CC(=O)Nc2ccc(Cl)c(Cl)c2)nnc1SCC(=O)Nc1nccs1
→ 0%, 7%, 9%, ?, 3%, 10%, 5%, 1.0%
N#CC1=C(N)Nc2ncnn2C1c1ccccc1 (configuration not stated)
→ 1%, 17%, /, -4%, -2%, 16%, /, 1.0%
O=C(O)c1cccc(NC(=S)NC(=O)c2ccc3ccccc3c2)c1
→ 0.79µM*, -6%, 14µM*, /, 2%, ?, 3%, /
CCNc1nc(NCC)n2c(SCC(=O)Nc3ccccc3Cl)nnc2n1
→ 3%, /, -3%, /, 12%, 22%, 1%, /
CCN(CC)C(=O)Nc1ccc(Br)cc1
→ -2%, 12%, 24%, /, -5%, -22%[46.1 µM], 8%, /
Cn1c(N)nc2ccccc2c1=O
→ 5%, 1%, 0%, /, 1%, -2%[46.1 µM], -10%, /
O=C(NCCCN1CCC(Cc2ccccc2)CC1)C1CC(=O)N(C2CCCCCC2)C1 (configuration not stated)
→ -12%, -4%, -13%, 6%, -4%, 14µM*, -10%, 1.8%
COc1cc(NC(=O)COC(=O)CNC(=O)c2ccc(Cl)cc2)c(C)cc1[N+](=O)[O-]
→ 17%, -7%, -10%, 10µM*, 7%, 11%, -8%, 13µM*
CCN(C(=O)c1cccnc1SC)C12CC3CC(CC(C3)C1)C2
→ -18%, -33%, -13%, /, -13%, ?, -2%, /
O=[N+]([O-])c1cc(F)c(N2CCCCCC2)cc1N1CCNCC1
→ 8%, 7%, -12%, /, -1%, -3%, 22%, /
O=C(Nc1ccc(Cl)cc1)N1CCC(c2ccccc2)C1 (configuration not stated)
→ ?, /, -4%&29%, -11%, -9%, ?, -16%, -3.0%
O=C(COc1ccccc1Cl)Nc1ccc2[nH]c(=O)[nH]c2c1
→ -8%[46.1 µM], /, -12%, /, -4%, 0%, 20%, /
Clc1ccccc1CSc1cnnc2ccccc12
→ 0%[46.1 µM], /, 39%[activator], /, /, ?, 8%, /
O=C(NCc1cc(F)ccc1F)C1CCC(=O)N(C2CCCCCC2)C1 (configuration not stated)
→ 22%[46.1 µM], -5%, 30%[activator], /, -1%, 11%[46.1 µM], 1%, /
CN(CC1CCCN(CCc2ccc(Cl)cc2)C1)C(=O)c1ccc2nc[nH]c2c1 (configuration not stated)
→ 14%, 2%, 0%, /, -7%, -5%, 3%, /
CC(/C=N/NC(=O)Cc1cccs1)=C\c1ccco1
→ 8%, -7%, 21%, -4%, -4%, -8%, -11%[3.69 µM], -5.3%
CC(C)c1ccc(NC(=S)NN2C(C)CCCC2C)cc1 (configuration not stated)
→ -19%[46.1 µM], /, 4%, /, ?, ?, -2%, /
CC(=O)c1cccc(NC(=O)NC(C)c2ccncc2)c1 (configuration not stated)
→ ?, -4%, 13%, 10%, 1%, 21%, -2%, -1.8%
CCOC(=O)CNC(=O)CSc1nc(N(C)C)nc(N2CCOCC2)n1
→ 3%, 2%, -1%, 1%, 1%, 7%, -14%, 4.8%
CN1C(=O)C(N=Nc2ccccc2C(=O)O)N(C)C1=S (configuration not stated)
→ 10%, 2%, 25%, /, 0%, 16%[46.1 µM], 3%, /
O=C(Cn1nnc2ccccc2c1=O)Nc1cc(C(F)(F)F)ccc1N1CCOCC1
→ 12%, 0%, -29%, 17%, -15%, -6%, 2%, -3.4%
Cc1cc(OC(F)F)ccc1NC(=O)Nc1ccc([N+](=O)[O-])cc1
→ ?, -32%, -15%, -2%, -6%, ?, /, -19%
COC(=O)c1ccc(NC(=O)CN(CCc2ccccc2)S(=O)(=O)c2ccc(OC)cc2)cc1
→ ?, /, -7%, 10%, /, /, /, -3.8%
COc1ccc(C)cc1NC(=O)CCNS(=O)(=O)c1cccc(C(F)(F)F)c1
→ -6%, 0%, 7%, /, -2%, -11%, 6%, /
O=C(Cc1ccccc1)Nc1ccc2oc(-c3ccncc3)nc2c1
→ -1%, -1%, -6%, -6%, -5%, -7%, -4%, 0.8%
Cn1c(=O)[nH]c(=O)c2c1nc1n2CCCN1Cc1ccccc1
→ /, 5%, -9%, /, -2%, /, 6%, /

3 compounds from above, sorted by length of the SMILES, smallest number first:
Order of results: Lassa entry inh, NS1 function inh, StopGo reporter, Cruzain inh noDet, SARS PLP yeast, MARV entry inh, RE007 growth inh, Cruzain Triton
N/C(=N\OC(=O)CC1CCCCC1)c1ccncc1
→ 7%, 1%, 33%[activator], /, 0%, 18%, 1%, /
O=C(COc1ccccc1Cl)Nc1ccc2[nH]c(=O)[nH]c2c1
→ -8%[46.1 µM], /, -12%, /, -4%, 0%, 20%, /
COc1cc(OC)c(C2Nc3c(C)cccc3-c3cc(C)nn32)cc1OC (configuration not stated)
→ -8%[46.1 µM], /, -8%, 7%, /, ?, /, -0.6%

(list continues)
Order of results: Lassa entry inh, NS1 function inh, StopGo reporter, Cruzain inh noDet, SARS PLP yeast, MARV entry inh, RE007 growth inh, Cruzain Triton
O=C(COc1ccc(S(=O)(=O)Nc2ccccc2)cc1)NCc1ccccn1
→ -14%, 5%, 32%[activator], /, -4%, -3%, -8%, /
CCOc1ccc(CN(CCc2ccc3c(c2)OCO3)Cc2ccc(OC)c(Br)c2)cc1
→ -23%[46.1 µM], /, -21%, 7%, /, ?, /, -3.7%
O=C(Cc1cccc2ccccc12)Nc1ccccc1C(=O)O
→ ?, 5%, 42%[activator], -2%, -1%, 15µM*, 11%, -0.8%
Cn1c(=O)c([N+](=O)[O-])c(NCC(O)c2ccccc2)c2ccccc21 (configuration not stated)
→ 0%, 10%, 22%, -1%, -6%, 16%, 1%, -2.7%
CCN1CCC(NC(=O)Nc2ccc(F)cc2)CC1
→ /, -1%, -6%, /, 1%, /, 6%, /
O=C(CN1CCN(Cc2ccc(Cl)cc2)CC1)N1CCc2ccccc21
→ -2%, -8%, -16%, /, -1%, -1%[46.1 µM], 3%, /
COc1cc(NC(=O)COc2ccc(Cl)cc2)ccc1-c1cc2ccccc2oc1=O
→ -20%, ?, ?, 5µM*, -3%, ?, -6%, -0.4%
